BJeLR lethal – BJeLR cell viability loss | BJeLR (HRASV12) viability, CellTiter-Glo ATP luminescence, 48 h; reference of the scale not given here | inhibition, % (no concentration beside the values) | 0.17% of 300,000 active;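 active = replicate mean above 50%; inconclusive = above 50% but judged a plate artefact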;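 note: 50 nL library stock added to about 25 µL; numbers are from one replicate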
RN4220 kill – S. aureus RN4220 growth inhibition. OD600, 16 h. inhibition, % (no concentration beside the values). 0.33% of 330,000 active. AID 1259311;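 active = z-score of -3 or lower and OD600 up to 0.18 on both plates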;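 note: plate controls were untreated cells for no effect and reference antibiotic for full effect; stock transfer was 100 nL into about 80 µL; one replicate is shown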
PrP UTR inh – inhibition of PrP 5' UTR reporter expression; 0.35% of 340,000 active; AID 488862; inhibition, % (test concentration not listed); cell-based PrP 5' UTR mRNA reporter, plate reader;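 active = every replicate at 50% or more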;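 note: 0 = median of the neutral control wells; tested in H4 reporter cells; numbers are from one replicate; inactives centre near -14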
Autofluor counter – counter-screen for toxin protease inhibitors: compound fluorescence | fluorescence intensity (no concentration beside the values) | AID 624483 | compound autofluorescence counterscreen, microsphere flow cytometry; hits give high values | 3.1% of 360,000 active;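 active = at least 3 SD above the mean of all compounds, about 16000 in these data; inconclusive = too few beads counted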;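 note: 100 nL of 1 mM stock went into each well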
Mtb hypoxia rep – Mtb hypoxia fluorescent reporter inhibition. M. tuberculosis hypoxia-regulated fluorescent reporter, fluorescence. fluorescence inhibition, % (no concentration beside the values). 0.1% of 300,000 active;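 active = 35 to 45% if threefold the growth effect, above 45% if 1.5-fold the growth effect; inactive = the rest, general growth blockers included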;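 note: wells of about 50 µL received 100 nL stock; 0% = vehicle wells and 100% = reference inhibitor wells; whole bacteria with a GFP reporter of the hypoxia response; strong numbers were not always called active; many hits fall short of the cut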
ugtP null kill – compounds lethal to S. aureus RN4220 ugtP deletion mutant; AID 1259309; 0.54% of 330,000 active; OD600 growth, 16 h; some inactives read as strong as hits; growth inhibition, % (no concentration beside the values);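 active = z-score under -3 and OD600 up to 0.15 on both plates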;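 note: plate controls were untreated wells for no effect and antibiotic for full effect; wells of about 80 µL received 100 nL stock; the first replicate is given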
Mtb hypoxia rep growth – second read-out of Mtb hypoxia rep, no call of its own (marks repeat the call); growth inhibition, %; measured here: M. tuberculosis growth (absorbance);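 0% = vehicle and 100% = reference antibiotic; read after six days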
An asterisk follows results filed as active; ? = inconclusive; · = no result given.

SMILES | BJeLR lethal | RN4220 kill | PrP UTR inh | Autofluor counter | Mtb hypoxia rep | Mtb hypoxia rep growth | ugtP null kill
COc1ccc(Nc2nc(NCCN3CCOCC3)nc(Nc3ccc(OC)cc3)n2)cc1 | -6 | 0.5 | -14 | 4211 | 12 | 8 | -8
O=C(NCc1ccccc1F)C1CCCN1C(=O)Nc1ccccc1 (stereo not given) | 2 | 5.3 | -10 | 3883 | 0 | 6 | 10
COc1ccc(Cn2nnnc2C(c2cc3cc(C)ccc3[nH]c2=O)N2CCOCC2)cc1 (stereo not given) | -2 | 2.2 | -19 | 22468* | 5 | 12 | -3
Cn1nnnc1SCCNC(=O)C1CCC(=O)N(CCc2ccccc2)C1 (stereo not given) | -4 | -2.5 | -6 | 5879 | -1 | 2 | 0
CCN(CC)C(=O)[C@H]1C[C@H](CC(=O)NCCC2=CCCCC2)C(=O)N2CCc3c([nH]c4cc(CCC(=O)N(C)C)ccc34)[C@]12C | · | 3.6 | -11 | 3451 | -9 | 9 | 6
Cc1cc(NC(=O)COC(=O)c2nccnc2N)n(-c2ccccc2)n1 | -3 | 1.3 | -3 | ? | 8 | 3 | 5
COC(=O)Cc1cc(=O)[nH]c(/N=C(\N)Nc2ccc(C(C)C)cc2)n1 | -2 | · | -27 | 3937 | · | · | ·
CCc1nnc(NC(=O)c2ccc3c(c2)C(=O)N(CC)C3=O)s1 | 7 | 2.7 | -8 | 23383* | -1 | 4 | -8
O=C(Nc1ccccn1)C(=O)N1CCCCC1 | -1 | 3.2 | -32 | 3904 | 7 | 9 | 9
O=c1c(Cl)c(NCC2CCCO2)cnn1C12CC3CC(CC(C3)C1)C2 (stereo not given) | 6 | 0.3 | · | 4907 | 13 | 20 | 5
Cc1nonc1NC(=O)CSc1nc2ccc(Cl)cc2[nH]1 | 4 | 1.8 | -23 | 3455 | 1 | 2 | -8
COc1ccc2c(COC(=O)[C@@H]3CCCN3S(=O)(=O)c3ccc(Cl)cc3)cc(=O)oc2c1 | · | 3.7 | 1 | 5988 | -13 | 1 | -7
Cc1csc(=O)n1CCC(=O)O | -6 | 5.6 | -17 | 6931 | 7 | 7 | 11
O=C(Cn1c(NCCO)nc2ccccc21)Nc1ccc2c(c1)OCCCO2 | · | 3.0 | -14 | ? | 12 | -3 | 5
CCOc1ccccc1Nc1nnc(SCC(=O)NC2CCS(=O)(=O)C2)s1 (stereo not given) | · | 5.1 | -20 | 3970 | 9 | 3 | 2
CN(C)Cc1c(C(=O)NN=Cc2ccc(OCc3c(F)cccc3Cl)cc2)nnn1-c1nonc1N | · | -0.1 | · | · | -11 | -1 | -6
COc1ccc(C2=NOC(Cn3nc(-c4ccccc4C)cc3C(=O)O)C2)cc1 (stereo not given) | · | 3.4 | -10 | ? | 9 | 1 | 3
Nc1c(-c2ccc(Cl)cc2)cnc2c(-c3ccccc3)cnn12 | -4 | 2.4 | -30 | 3013 | 16 | 7 | 9
O=C(COC(=O)c1cccc(OC(F)F)c1)NC1CCCC1 | 9 | 4.8 | · | 3325 | 1 | 4 | 3
CC(=O)c1ccc(OCCCCCCCOc2ccc(C(C)=O)cc2)cc1 | -12 | 0.7 | -15 | 3063 | 9 | 1 | 7
C/C(Cn1nnc([N+](=O)[O-])n1)=N\NC(=O)c1ccc(O)cc1O | 16 | · | -12 | 2104 | · | · | ·
Cc1nc2ncccn2c1-c1csc(Nc2ccc(O)cc2)n1 | 13 | 11 | -5 | 4755 | 12 | -1 | -5
O=C1C(C=NCCN2CCOCC2)=C(O)c2ccccc21 | -14 | 4.9 | -59 | 2513 | -4 | 13 | 5
Cn1c(Cn2c(=O)sc3ccccc32)nnc1SCc1cccc(F)c1 | -20 | 2.0 | -3 | 4563 | · | · | -3
COc1ccc(C2C3=C(CC(C)(C)CC3=O)Oc3ncn(CC(C)C)c(=N)c32)cc1 (stereo not given) | -1 | 2.1 | 0 | 3290 | 8 | 10 | 2
NC(=O)c1ccccc1Nc1nc2nc3ccccc3c(=O)n2cc1Br | -7 | 2.5 | · | · | 9 | 4 | 10
CCOC(=O)C1C2COc3ccc(C)cc3C2N2C(=O)CN(Cc3ccc(OC)cc3)C(=O)[C@@]12C (stereo not given in full) | · | 5.6 | · | · | 6 | 4 | -6
Cc1ccc(S(=O)(=O)N2CCN(C(=O)COC(=O)Cc3ccccc3)CC2)c(C)c1 | -18 | 1.1 | -16 | ? | 7 | -3 | 2
CCN(C(=O)c1ccco1)c1nnc(-c2ccc(OC)cc2)s1 | 4 | 3.4 | -52 | 3992 | · | · | 4
O=C(COC(=O)/C=C/c1cccc(F)c1)NNC(=O)c1ccccc1 | -1 | 4.6 | -16 | 2511 | 11 | 2 | 5
CCCC[C@@H]1CNC(=S)N1CCc1cccc2ccccc12 | -3 | · | -21 | 4350 | · | · | ·
Cc1cc(C)c(NC(=O)CNC(=O)c2cc(C3CC3)nn2-c2ccccc2)c(C)c1 | · | 0.4 | -29 | 3643 | 2 | 9 | 2
O=C(NCCCN1CCOCC1)C1CCN(S(=O)(=O)c2cccc(Cl)c2Cl)CC1 | -12 | 3.7 | -11 | ? | 0 | -2 | 7
O=C(Nc1ccncc1)Nc1ccccc1Cl | -12 | 2.9 | -20 | 4180 | 6 | -5 | 11
CCOC(=O)C1CCN(C(=O)CCc2c(C)nc3cc(-c4ccccc4)nn3c2C)CC1 | 2 | 3.4 | -7 | 6018 | 3 | 1 | 1
CCOc1cc(/C=C/c2nc3cc(C)c(C)cc3s2)ccc1OCC(=O)N1CCOCC1 | 6 | 8.5 | -19 | 2660 | 8 | 7 | -5
COc1ccc(/C=C/C(=O)N2CCOCC2)cc1OC | -1 | 3.6 | 7 | 3485 | -5 | 8 | 4
CCN(C(=O)CN1CCN(C)CC1)c1cccc2ccccc12 | 3 | 4.0 | -5 | 5811 | · | · | 1
O=C(/C=C\c1ccc2c(c1)OCO2)NC1(C(=O)Nc2ccc3c(c2)OCO3)CCCCC1 | 3 | · | -23 | 10704 | · | · | ·
O=C(NC1=NCCS1)Nc1ccccc1 | 19 | 4.8 | -77 | 4060 | 2 | 4 | 0
O=C(COc1ccc(Cl)c(Cl)c1)NC1CCS(=O)(=O)C1 (stereo not given) | · | 0.8 | -21 | 3535 | 0 | 5 | 1
COc1ccc(S(=O)(=O)N(C)CC(=O)Nc2c(F)cccc2F)cc1 | -12 | 2.6 | -2 | 10692 | 20 | 11 | -3
CCn1cc(C(=O)O)c(=O)c2cnc(N3CCN(C(=S)Nc4ccccc4C(F)(F)F)CC3)nc21 | 0 | 3.7 | -9 | 5427 | -3 | 5 | -1
Cn1c(=O)[nH]c(=O)c2c1nc(N(CCO)Cc1ccccc1)n2Cc1ccccc1Cl | 1 | 7.6 | -5 | 19793* | 3 | 5 | -9
CCC(C)C(C(=O)N1CCNCC1)n1cc(C(N)CC(C)C)nn1 (stereo not given) | · | -3.6 | · | · | -2 | 4 | -6
CN1CCC(N2CCN(c3cccc(C(F)(F)F)c3)CC2)CC1 | 8 | 4.0 | -21 | 10975 | 7 | 6 | 3
COc1ccc(NC(=O)CN(C)C(=O)CSc2nc3ccccc3s2)cc1 | 7 | 2.9 | 11 | 7029 | 12 | 10 | 10
Cc1ccccc1CC(=O)N1CCOCC1 | 9 | 1.0 | -32 | 3657 | 18 | 9 | 11
CC1CCN(Cc2nnnn2-c2cccc([N+](=O)[O-])c2)CC1 | 2 | 5.0 | -14 | 2189 | 13 | 7 | 1
COc1ccccc1N1CCN(C2CCN(C(=O)c3ccc(F)cc3)CC2)CC1 | -1 | 3.5 | -6 | 2592 | 15 | 2 | 2
Additional structures.
SMILES | BJeLR lethal | RN4220 kill | PrP UTR inh | Autofluor counter | Mtb hypoxia rep | Mtb hypoxia rep growth | ugtP null kill
COc1cccc(/C=C2\C(=O)N(c3cccc(C)c3)C(=O)c3ccccc32)c1 | 4 | -0.1 | -15 | 2044 | 10 | 4 | 2
Cc1c(NS(=O)(=O)c2cccc(C(=O)Nc3ccc(SC(F)F)cc3)c2)c(=O)n(-c2ccccc2)n1C | · | 3.2 | -8 | 3581 | 7 | 5 | 7
CC(/C=C/c1ccccc1)=NNC(=O)c1cccc(Br)c1 | · | 10 | · | · | 2 | 10 | -6
CCc1ccc(NC(=O)c2onc(C)c2Cl)cc1 | -4 | 5.2 | -110 | 5497 | 3 | 6 | 3
C/C(Cn1nnc([N+](=O)[O-])n1)=N\NC(=O)c1ccc(C)cc1 | -4 | · | -23 | 8935 | · | · | ·
CCOC(=O)Cn1nc(C)c2ccccc2c1=O | 3 | 0.9 | -6 | 3574 | 4 | 4 | 1
CCOc1c2ccc(C(=O)NCc3ccc(C)cc3)cc2nn1CC | 5 | -17 | -12 | 2977 | 10 | 8 | 5
Cc1cc(-c2cc(-c3ccccc3)on2)nc(NC2CCCC2)n1 | -17 | -4.8 | -32 | 3536 | 3 | 5 | 12
CC(C)OC(=O)NCN1C(=O)C2C3C=CC(C3)C2C1=O (stereo not given) | -3 | 7.6 | -14 | 2418 | 2 | 8 | 8
COc1ccc(-n2nc(C(=O)NCC(=O)N3CCC4(CC3)OCCO4)c3ccccc3c2=O)cc1 | -4 | 4.2 | -27 | 2946 | 12 | 1 | 12

Retrieved by compound from above (two):
SMILES | BJeLR lethal | RN4220 kill | PrP UTR inh | Autofluor counter | Mtb hypoxia rep | Mtb hypoxia rep growth | ugtP null kill
Cc1cc(-c2cc(-c3ccccc3)on2)nc(NC2CCCC2)n1 | -17 | -4.8 | -32 | 3536 | 3 | 5 | 12
COc1ccc(-n2nc(C(=O)NCC(=O)N3CCC4(CC3)OCCO4)c3ccccc3c2=O)cc1 | -4 | 4.2 | -27 | 2946 | 12 | 1 | 12

Remaining list, next part
SMILES | BJeLR lethal | RN4220 kill | PrP UTR inh | Autofluor counter | Mtb hypoxia rep | Mtb hypoxia rep growth | ugtP null kill
CN(NS(=O)(=O)c1cccs1)c1ncc(C(F)(F)F)cc1Cl | -8 | 3.8 | -14 | 5638 | 0 | 3 | -4
CC(C)n1cnc2c(=S)nc[nH]c21 | 5 | · | -3 | 3803 | · | · | ·
Cc1cccc(NC(=O)c2nc[nH]c2C(=O)Nc2cccc(C)c2)c1 | 5 | 0.6 | -13 | 4719 | 18 | 1 | 0
CCN1C(=O)[C@@H]2[C@@H](c3ccc(-c4ccc(Cl)c(Cl)c4)c(OC)c3)N3CCCC[C@@]3(C(=O)OC)[C@@H]2C1=O | -6 | · | -23 | 2929 | · | · | ·
COc1ccc(OC)c(CC(=O)O)c1 | 6 | 4.4 | -14 | 23906* | 6 | 4 | 13
COCCNC(=S)N1CCN(c2nc(-c3ccc(F)cc3)cs2)CC1 | 3 | -9.6 | -21 | 3443 | 17 | 8 | 17
Cc1cc(C)nc(NS(=O)(=O)c2ccc(NC(=S)NC(=O)C(C)(C)C)cc2)n1 | 1 | -1.2 | -29 | 10938 | 8 | 13 | 27
O=C1[C@@H]2[C@H](C(=O)N1n1cnnc1)[C@H]1C=C[C@@H]2C1 | -4 | · | -9 | 3191 | · | · | ·
COc1ccc(C2C(C(=O)OC(C)C)=C(C)N=c3s/c(=C\c4cccs4)c(=O)n32)cc1 (stereo not given) | -10 | · | -23 | 4662 | · | · | ·
COC(CNC(=O)C(CSCc1ccccc1)N1Cc2ccccc2C1=O)OC (stereo not given) | · | 5.4 | · | · | 10 | -3 | -6
O=C(Cc1cccs1)N1CCN(S(=O)(=O)c2cc(Cl)ccc2Cl)CC1 | 6 | 4.6 | -6 | 4571 | 6 | 3 | 6
CCCOC(=O)c1ccc(NC(=O)CCC(=O)OCC)cc1 | 2 | 2.1 | -31 | 21063* | -1 | 6 | 3
O=C(CNC(c1ccccc1)c1ccccc1)Nc1ccccc1F | 1 | 0.1 | 1 | 4474 | 4 | -6 | 6
O=S(=O)(c1ccccc1)N1CCN=C1SCc1cccc(Cl)c1 | 4 | 5.0 | -12 | 2113 | 1 | 2 | -2
O=C(c1ccncc1)C12CN3CN(CN(C3)C1)C2 | -4 | 1.7 | -15 | 2737 | · | · | 2
CCOc1ccc(N=Cc2c(O)n(Cc3ccccc3)c(=S)[nH]c2=O)cc1 | 2 | 4.6 | -6 | 5751 | 1 | 5 | 1

Among those listed so far, these have a CF3 group.
SMILES | BJeLR lethal | RN4220 kill | PrP UTR inh | Autofluor counter | Mtb hypoxia rep | Mtb hypoxia rep growth | ugtP null kill
CCn1cc(C(=O)O)c(=O)c2cnc(N3CCN(C(=S)Nc4ccccc4C(F)(F)F)CC3)nc21 | 0 | 3.7 | -9 | 5427 | -3 | 5 | -1
CN1CCC(N2CCN(c3cccc(C(F)(F)F)c3)CC2)CC1 | 8 | 4.0 | -21 | 10975 | 7 | 6 | 3
CN(NS(=O)(=O)c1cccs1)c1ncc(C(F)(F)F)cc1Cl | -8 | 3.8 | -14 | 5638 | 0 | 3 | -4

Source: PubChem BioAssay
